Six1-Eya2 inh: inhibitors of human Six1/Eya2 interaction; AlphaScreen GST-Six1/His-Eya2 binding, biochemical; active compounds read low; control for the full effect not named in the record; activity change, % (concentration not given with the values); 360,000 compounds, 0.56% hits; AID 651725; in the data active = activity change below about -65%; inconclusive = about -30% to -65%; inactive = above about -30%; further: on the % scale 0 is the no-effect control and ±100 the full control effect
Target sequence (O00167 whole entry, looked up): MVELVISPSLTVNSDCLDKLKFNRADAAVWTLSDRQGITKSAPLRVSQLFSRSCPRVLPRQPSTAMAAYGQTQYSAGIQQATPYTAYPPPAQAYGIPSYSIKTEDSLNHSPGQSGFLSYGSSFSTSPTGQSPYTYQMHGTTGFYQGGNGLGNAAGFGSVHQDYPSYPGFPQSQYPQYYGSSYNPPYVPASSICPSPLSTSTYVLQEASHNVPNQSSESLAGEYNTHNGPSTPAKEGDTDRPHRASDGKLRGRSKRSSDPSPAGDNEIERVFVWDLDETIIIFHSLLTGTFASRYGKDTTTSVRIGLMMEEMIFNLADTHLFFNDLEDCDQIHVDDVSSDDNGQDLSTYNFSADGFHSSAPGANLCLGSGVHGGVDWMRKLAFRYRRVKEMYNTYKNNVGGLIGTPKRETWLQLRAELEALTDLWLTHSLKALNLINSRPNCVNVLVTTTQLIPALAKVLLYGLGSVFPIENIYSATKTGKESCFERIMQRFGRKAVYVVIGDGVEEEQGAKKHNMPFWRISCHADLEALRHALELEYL
Target sequence (Q15475 whole entry, looked up): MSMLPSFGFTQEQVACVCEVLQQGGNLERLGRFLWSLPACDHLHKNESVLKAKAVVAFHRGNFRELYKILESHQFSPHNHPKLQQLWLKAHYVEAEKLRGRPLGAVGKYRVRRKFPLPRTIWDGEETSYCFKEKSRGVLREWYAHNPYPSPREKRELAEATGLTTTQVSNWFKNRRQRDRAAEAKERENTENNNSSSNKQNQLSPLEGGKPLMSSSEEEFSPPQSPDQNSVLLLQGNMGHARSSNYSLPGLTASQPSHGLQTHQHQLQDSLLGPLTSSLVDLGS
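GST-Six1 + His-Eya2 (5X stock: 250/500 nM); Tris pH 8.0, 300 mM NaCl, 0.05% BSA, 0.02% Tween 20; GSH donor/Ni acceptor beads; 1 h 37 °C dark; AlphaScreen readout.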
PINK1 expr mod: PINK1 expression modulation. PINK1 immunofluorescence, high-content cytometry, 24 h. 410,000 compounds, 0.2% hits. AID 624263. Potency, µM (titrated, usually from 76.6 µM), for the others: top-dose activation (PINK1 increase), hits mostly activators; active = well fitted activation curve with a large enough effect; inconclusive = small, poorly fitted or top-dose-only effect; inactive = flat fitted curve, though single readings scatter; cell line not stated here;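 further: potency means the concentration at half of the fitted maximal effect; % of control where 0% means no effect; nearly all actives have a fitted effect of over 65% in size; a mitochondrial uncoupler was the plate control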
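PINK1 protein level read as immunofluorescence by microplate cytometer in a fixed, stained stable cell line after 24 h exposure to five compound concentrations, with CCCP as control.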
CtBP-E1A blk: CtBP/E1A binding inhibition; AlphaScreen GST-E1A/His-CtBP binding, 1536-well; active compounds read low; control for the full effect not named in the record; activity change, % (no concentration beside the values); 340,000 compounds, 0.49% hits; AID 651724; in the data active means activity change below about -65%; inconclusive means about -30% to -65%; inactive means above about -30%; further: on the % scale 0 is the no-effect control and ±100 the full control effect
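Protein mix (5X: 125 nM each GST-E1A, His-CtBP) was incubated with pinned compound 2 h at 37 deg C in dark, in 50 mM Tris pH 8.0 buffer with 300 mM NaCl. Glutathione donor and nickel acceptor beads followed; AlphaScreen signal read after 1 h.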
D2 agonist: human D2 receptor agonism in beta-arrestin assay; P14416; DiscoveRx PathHunter D2 beta-arrestin, luminescence, 90 min; 100% = 57 uM dopamine signal; activation, % (concentration not given with the values); 360,000 compounds, 0.084% hits; AID 624465; in the data active = activation above about 40%; inconclusive = about 15% to 40%; inactive = below about 15%; further: the text of the record calls up to 30% inactive
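DiscoveRx PathHunter D2 beta-arrestin cells (2,100/well) attached overnight, then compound-stimulated 90 min at 37 C in HBSS/10 mM HEPES/0.1% Tween-20 buffer; beta-galactosidase complementation read by luminescence after 1 h at ambient temperature. Dopamine 57 uM final (EC100) as control.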
TRPV1 potentiator: human TRPV1 potentiation | Q8NER1 | TRPV1-expressing cells, Fluo-8 calcium influx, capsaicin EC20 potentiation; host cell line not named in the record; control for the full effect not named in the record | potentiation, % at 8.33 µM | 320,000 compounds, 0.02% hits; active means potentiation above 80%; inconclusive means 30% to 80%; inactive means below 30%; further: 0% is about no effect
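Fluo-8 calcium influx in TRPV1-expressing cells, kinetic read (ex 480/em 520 nm). Compound added and read 3 min for agonist activity, followed by capsaicin at EC20 final and 2 min further read for enhancement.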
Sfp inh: inhibitors of Bacillus subtilis Sfp phosphopantetheinyl transferase. Biochemical Sfp PPTase activity, qHTS. Potency, µM, without a hit: max response, negative = inhibition, actives largely listed as inhibitors. 310,000 compounds, 3.5% hits. AID 1490; active means well fitted inhibition curve with a large enough effect; inconclusive means small, poorly fitted or top-dose-only effect, or another doubt; inactive means no such curve, though single readings can be large or run the other way;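 further: the enzyme is Sfp with the accession as filed and its product quenches rhodamine fluorescence; potency means the concentration at half of the fitted maximal effect; 0% = enzyme reaction without inhibitor and -100% = no enzyme wells; top concentration of the series not given in the record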
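Compounds were incubated with enzyme (final 15 nM) for 15 min at room temperature before substrate addition started the reaction. Fluorescence at 525 nm excitation, 598 nm emission was recorded immediately and after 30 minutes.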
D2 potentiator: human D2 receptor positive allosteric modulation; P14416; DiscoveRx D2 beta-arrestin cells, luminescence, 90 min; 100% = 57 uM dopamine signal; potentiation, % (test concentration not listed); 360,000 compounds, 0.23% hits; active = potentiation of 50% or more; inconclusive = 30% to 50%; inactive = 30% or less;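 further: compound concentration not given in the record; tested on top of an EC20 dose of dopamine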
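PathHunter beta-arrestin assay in DiscoveRx D2 cells. Compounds were added with an EC20 of dopamine (50 nM final) for 90 min at 37 deg C. Luminescence was read 1 h after detection reagent, with 57 uM dopamine as the EC100 control.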
* marks the source's active call; other numbers are inactive results; u = inconclusive; x = not tested or not shown; [ ] = dose if it differs, or a comment.

1: Cc1c(Cl)cccc1N1C(=O)CC(N(O)c2ccccc2)C1=O (stereo not given)
2: CCOc1ccccc1CNC(=O)CCNS(=O)(=O)c1ccc2[nH]c(=O)oc2c1
3: COc1ccc(C(=O)Nc2cccc(N(C)S(C)(=O)=O)c2)cc1OC
4: COc1ccc(/C=C/c2nnc(NC(=O)C(C)C)s2)cc1
5: Cc1ccc2cc(CNC[C@H]3O[C@@H](n4cc(C)c(=O)[nH]c4=O)C[C@@H]3O)c(N3CCOCC3)nc2c1
6: O=C(c1ccco1)N1N=C(c2ccc(Cl)cc2)CC1(O)C(F)(F)F (stereo not given)
assay / compound	1	2	3	4	5	6
Six1-Eya2 inh	-2	2	-1	1	-1	0
PINK1 expr mod	-1.9%	-1.8%	x	1.8%	1.5%	6.0%
CtBP-E1A blk	3	0	-3	7	4	6
D2 agonist	5.8	-1.7	0.7	1.6	-10.0	1.5
TRPV1 potentiator	17	-2	13	6	x	-3
Sfp inh	-7%	9%	19%	10%	x	13%
D2 potentiator	55*	-2	12	-6	-1	-1

Entries 3–5 from above:
3: COc1ccc(C(=O)Nc2cccc(N(C)S(C)(=O)=O)c2)cc1OC
4: COc1ccc(/C=C/c2nnc(NC(=O)C(C)C)s2)cc1
5: Cc1ccc2cc(CNC[C@H]3O[C@@H](n4cc(C)c(=O)[nH]c4=O)C[C@@H]3O)c(N3CCOCC3)nc2c1
assay / compound	3	4	5
Six1-Eya2 inh	-1	1	-1
PINK1 expr mod	x	1.8%	1.5%
CtBP-E1A blk	-3	7	4
D2 agonist	0.7	1.6	-10.0
TRPV1 potentiator	13	6	x
Sfp inh	19%	10%	x
D2 potentiator	12	-6	-1

Further entries.
7: CCOC(=O)C1CCN(C(=O)c2cccs2)CC1
8: CCN(CC(=O)NCc1ccncc1)S(=O)(=O)c1ccc(OC)cc1
9: O=C(c1cc(COc2ccc(F)cc2Cl)on1)N1CCSCC1
10: CC(=O)NC(CC(=O)OCC(=O)N1CCN(S(=O)(=O)c2ccc(Cl)cc2)CC1)c1ccccc1 (stereo not given)
11: CCOC(=O)Cc1nnc(Nc2cccc(O)c2)c2ccccc12
12: Cn1c(SCC(=O)N2CCOCC2)nc2cccnc21
assay / compound	7	8	9	10	11	12
Six1-Eya2 inh	15	2	5	2	-4	5
PINK1 expr mod	-0.3%	3.1%	1.3%	1.3%	1.0%	-1.7%
CtBP-E1A blk	x	2	5	-1	-1	6
D2 agonist	-2.6	4.0	0.6	0.5	-3.1	-0.3
TRPV1 potentiator	-1	2	-6	8	0	-15
Sfp inh	8%	17%	5%	x	10%	9%
D2 potentiator	2	1	4	15	-21	-2

13: Cc1ccc2oc(C(=O)NC3CCS(=O)(=O)C3)cc(=O)c2c1 (stereo not given)
14: CCOc1cc(/C=N/N=C2/NC(=O)C(CC(=O)O)S2)ccc1OCc1ccc(Cl)cc1 (stereo not given)
15: NC(=O)c1ccc(NC(=O)CSc2nnc(-c3ccc4c(c3)OCO4)o2)cc1
16: O=C(c1ccc(-n2cncn2)c([N+](=O)[O-])c1)N1CCN(S(=O)(=O)c2ccc(Br)cc2)CC1
17: Cc1nc2nc(COc3ccccc3)[nH]n2c(=O)c1Cc1ccccc1
18: COc1ccc(-c2nc(CN(Cc3cnn(C)c3)C(C)C)c(C)o2)c(OC)c1
assay / compound	13	14	15	16	17	18
Six1-Eya2 inh	-8	-1	0	-5	0	0
PINK1 expr mod	0.8%	0.8%	1.7%	-5.1%	2.1%[38.3 µM]	2.7%
CtBP-E1A blk	-21	-1	-2	3	7	1
D2 agonist	5.5	-4.3	1.3	2.2	-2.8	-1.7
TRPV1 potentiator	2	u	-14	24	-7	5
Sfp inh	7%	3%	x	x	3%	6%
D2 potentiator	-11	-4	1	u	1	-4

19: CCOC(=O)C(CC)/C(C)=N\NC(=O)c1ccccc1O (stereo not given)
20: Cc1cccc2nc(CSc3ccccc3N)cn12
21: COc1cccc(NC(=O)COc2coc(CN3CCc4ccccc4C3)cc2=O)c1
22: CC1(C)Cc2c(cnn2-c2cccc(F)c2)C(NC(=O)c2ccc[n+]([O-])c2)C1 (stereo not given)
23: Cc1ccc(NC(=O)C2CCN(C(=O)c3ccco3)CC2)cc1C
24: Nc1ccc2c(c1)Cc1cc([N+](=O)[O-])ccc1-2
assay / compound	19	20	21	22	23	24
Six1-Eya2 inh	-12	2	1	11	-4	11
PINK1 expr mod	22%	1.2%	2.6%	-0.9%	0.9%	4.9%
CtBP-E1A blk	23	1	5	-14	-9	14
D2 agonist	-0.4	-6.8	2.3	-3.9	-3.2	-6.6
TRPV1 potentiator	9	x	1	-6	-3	10
Sfp inh	5%	x	x	8%	10%	13%
D2 potentiator	-28	-31	6	-2	-13	-12

25: COc1cc(/C=C/C(=O)OCC(=O)N2c3ccccc3CC2C)cc(OC)c1OC (stereo not given)
26: COCCSc1nnc(NS(=O)(=O)c2ccccc2)s1
27: CSc1ccc(Cl)c(C(=O)OCC(=O)N(C)CCC#N)c1
28: Cc1cccc(-n2nnnc2SCC(=O)NCC2(N3CCOCC3)CCCCC2)c1C
29: CC(C)(C)c1ccc(C(=O)NCCN2CCOCC2)cc1
30: Nc1c(C(=O)Nc2ccccc2Cl)nnn1-c1ccc2c(c1)OCCO2
assay / compound	25	26	27	28	29	30
Six1-Eya2 inh	-7	9	0	-3	5	-13
PINK1 expr mod	8.5%	3.1%	2.9%	0.9%	0.7%	7.6%
CtBP-E1A blk	x	1	-2	2	x	-2
D2 agonist	9.0	0.2	-4.8	-1.3	3.4	-1.3
TRPV1 potentiator	0	-5	-5	-27	x	0
Sfp inh	x	-23%	9%	x	x	5%
D2 potentiator	0	-6	-1	8	-11	0

31: CC12CCC(c3c(C(=O)O)nn(-c4ccc(F)cc4)c31)C2(C)C (stereo not given)
32: CC(C)(C)n1nnnc1C(c1ccc(C(F)(F)F)cc1)N(Cc1ccc(F)cc1)Cc1ccco1 (stereo not given)
33: COc1cc(/C=C/C(=O)O)cc(S(=O)(=O)Nc2ccccc2C(=O)NCCc2ccccc2)c1OC
34: CC1CCCCC1NC(=O)CCCCCn1c(=S)[nH]c2ccccc2c1=O (stereo not given)
35: O=C(Nc1ccn(CCCN2CCN(c3ccccn3)CC2)c(=O)n1)OCc1ccccc1
36: COc1ccc2oc(=O)c(/C(C)=N/Nc3ccccc3)cc2c1
assay / compound	31	32	33	34	35	36
Six1-Eya2 inh	3	5	4	1	-9	1
PINK1 expr mod	-3.1%	1.9%	4.0%	6.6%	0.0%	-0.3%
CtBP-E1A blk	4	18	-12	-23	-11	x
D2 agonist	1.8	-0.2	3.3	-0.8	3.0	2.0
TRPV1 potentiator	-5	11	9	-6	x	-15
Sfp inh	29%	-8%	14%	21%	x	10%
D2 potentiator	10	-15	-6	-3	x	-10

37: CCOc1ccccc1NC(=O)NCCC1=CCCCC1
38: O=C(O)CC(c1cccc([N+](=O)[O-])c1)N1Cc2ccccc2C1=O (stereo not given)
39: COc1ccc(Br)cc1/C=C/C(=O)Nc1c(C)cccc1C
40: CCOc1cc2[nH]c(=S)n(CCCN3CCCC3=O)c(=O)c2cc1OCC
41: O=C(O)C(Cc1ccc(O)cc1)N1C(=O)c2ccccc2C1=O (stereo not given)
42: CCOc1ccc(NC(=O)c2nc(SCC)ncc2Cl)cc1
assay / compound	37	38	39	40	41	42
Six1-Eya2 inh	3	18	-3	1	10	2
PINK1 expr mod	2.3%	5.5%	-3.8%[38.3 µM]	5.9%[38.3 µM]	-2.0%	6.6%
CtBP-E1A blk	0	5	1	5	-3	x
D2 agonist	-7.2	-1.2	-1.6	-2.7	2.2	-0.7
TRPV1 potentiator	-12	6	-2	24	3	8
Sfp inh	7%	11%	-6%	56µM*	19%	1%
D2 potentiator	-15	-3	-14	-3	-1	-12

43: COc1ccc(NC(=O)C(OC(=O)Cn2cnc3c2c(=O)n(C)c(=O)n3C)c2ccccc2)cc1Cl (stereo not given)
44: CCOc1ccc(N2CC(C(=O)N3CCN(C(=O)c4ccco4)CC3)CC2=O)cc1 (stereo not given)
45: COC(=O)CC1SC(=O)NC1=Nc1cccc(C)c1 (stereo not given)
46: Cn1cc(S(=O)(=O)NC2CCCC2)c(=O)n(C)c1=O
47: COCCn1c(-c2ccc(Br)cc2)nc2oc3cc(OC)ccc3c(=O)c2c1=O
48: Cc1ccc2ccc(S(=O)(=O)NCc3ccccn3)cc2c1
assay / compound	43	44	45	46	47	48
Six1-Eya2 inh	5	-21	6	-6	4	-5
PINK1 expr mod	-0.8%	3.6%	0.9%	-0.8%	0.0%	0.2%
CtBP-E1A blk	-2	-3	13	-9	x	-2
D2 agonist	8.0	-3.7	-3.8	-2.6	10	-3.6
TRPV1 potentiator	x	9	0	1	-8	5
Sfp inh	x	23%	-12%	x	10%	20%
D2 potentiator	-1	-8	-7	-15	4	-9

49: CCOC(=O)c1c(N)c(C#N)cn1-c1ccccc1
50: Cc1cccc(-c2ccc3c(c2)C2CC3CCN2Cc2ccc3c(c2)OCO3)c1 (stereo not given)
51: Cc1cc(OC(C)C(=O)NCc2cccnc2)c2c(C)c(Cc3ccccc3)c(=O)oc2c1 (stereo not given)
52: CC(C)CN(C(=O)CSc1nnc(-c2cccs2)n1C1CC1)C1CCS(=O)(=O)C1 (stereo not given)
53: COC(=O)c1cccc(Nc2ncnc3ccc(C)cc23)c1
54: Cc1nc2ccccc2c2oc(C(=O)NCCN3CCCCC3C)cc12 (stereo not given)
55: Cc1nc2ncnn2c(Nc2ccc3c(c2)OCO3)c1Cc1ccccc1
assay / compound	49	50	51	52	53	54	55
Six1-Eya2 inh	-4	-19	1	20	0	-26	-3
PINK1 expr mod	-12%[38.3 µM]	19%	7.7%	0.0%	-0.2%[38.3 µM]	1.3%	0.8%[38.3 µM]
CtBP-E1A blk	0	-10	-2	6	7	-3	-5
D2 agonist	-2.8	-0.3	-2.3	-4.0	0.8	-3.1	5.0
TRPV1 potentiator	-5	x	27	x	-13	2	7
Sfp inh	14%	x	u	x	9%	11%	-9%
D2 potentiator	-4	-10	-3	-15	-7	-10	-1
